Calb biofilm kill – clotrimazole potentiators killing C. albicans biofilm, primary screen, 4-compound mixtures; 0.02% of 120,000 active; C. albicans biofilm persisters + clotrimazole, fluorescence viability; primary screen in compound mixtures of four per well; inhibition, % at 7.6 µM; AID 1242, 2008;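 active = inhibition above 30.3% in the primary screen of four-compound pools, then above 30% when the compound was retested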;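 note: compounds exposed to preformed 24 h biofilms for 48 h; the number belongs to the whole pool; some results filed as inactive read as strong as hits; inactives centre near 12; 0% = biofilm with clotrimazole alone and 100% = kill control; retested singly at about 60 µM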
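Test system: C. albicans CAF4-2 wild-type biofilms; buffer or medium: RPMI/MOPS medium, pH 7.0; schedule: 24 h biofilm formation, then 48 h compound exposure, 37 °C; detection: Alamar Blue fluorescence; measure: percent inhibition of biofilm viability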
Starred values were filed as active, the others as inactive. The list is partial, so the mix of outcomes need not match the whole.

Structure | Calb biofilm kill
O=[N+]([O-])/C(C(Cl)=C(Cl)Cl)=C1\Nc2ccccc2O1 | 21.9
O=C(NCCCN1CCC(Cc2ccccc2)CC1)C1CCN(S(=O)(=O)N2CCC3(CC2)OCCO3)CC1 | 18.4
Cc1c2cnn(CC(=O)N3CCN(c4ncccn4)CC3)c(=O)c2c(C)n1Cc1ccc(F)cc1 | 12.7
CN1CCN(C2=C(Cl)C(=O)C(c3cnc(N4CCCCC4)s3)=C(Cl)C2=O)CC1 | 9.4
O=C1/C(=C/c2ccco2)Cc2ccccc21 | 13.3
CC(C)=CCC/C(C)=C/COc1ccc2ccc(=O)oc2c1 | 19.2
CC1(C)CC2(CC(c3ccccc3)Oc3cc(O)ccc32)NC(=S)N1 (stereo not given) | 9.8
CCOC(=O)C(=CNc1ccc(OC)cc1[N+](=O)[O-])C(=O)OCC | 22.0

The list continues:
Structure | Calb biofilm kill
O=C(CCCOc1ccccc1)NC(=S)Nc1ccccc1 | 8.7
CCOC(=O)CN1C(=O)N[C@@H](c2ccc(Br)cc2)C(C(C)=O)=C1C | 8.8
CCCC(=O)OCC(=O)Nc1ccc([N+](=O)[O-])cc1C#N | 10.7
O=C(Cc1ccccc1)Nc1cccnc1 | 15.8
Cc1ccc(NC(=O)Cn2c(=O)n(CCC(=O)NC3CCN(Cc4ccccc4)CC3)c(=O)c3ccccc32)cc1 | 11.5
CC(N)=Nc1ccc([N+](=O)[O-])cc1 | 3.7
O=C(CSc1nccc(=O)[nH]1)Nc1ccc(F)c([N+](=O)[O-])c1 | 15.3
COc1ccc(C(=O)C2CCCN(Cc3ccc(C#CCCO)cc3)C2)cc1F (stereo not given) | 0.8

(more compounds)
Structure | Calb biofilm kill
C/C(=N\NC(=O)C1(C)CC1(Br)Br)c1ccc([N+](=O)[O-])cc1 (stereo not given) | 8.6
O=C(NNC(=S)Nc1ccccc1)C1CCCCC1 | 18.3
Cc1cc(Nc2c(C)n(C)n(-c3ccccc3)c2=O)c2ccccc2n1 | 9.2
COc1ccc(-c2nc3c(-c4ccc(Cl)cc4)cnn3cc2C)cc1F | 10.0
CNC(=O)CN(c1cc([N+](=O)[O-])ccc1OC)S(C)(=O)=O | 12.6
Cc1cc(NC(=O)CCC(=O)N(CC(=O)NCC2CCCO2)Cc2ccc(F)cc2)no1 (stereo not given) | 17.9
CCC(=Nc1ccccc1OC)C1=C(O)CC(c2ccccc2)CC1=O (stereo not given) | 15.7
CCCCN(CCCC)C(=O)c1sc2nc(N3CCOCC3)c3c(c2c1N)CCCC3 | 15.7

Later entries.
Structure | Calb biofilm kill
COc1cc(/C=C/C(=O)OCC(=O)NCc2cccs2)ccc1OCC#N | 17.2
O=C(Cc1ccccc1)NN1C(=O)C2C3C=CC([C@@H]2C1=O)C31CC1 (stereo not given in full) | 9.4
Cc1cc(C(F)(F)F)nc(-n2cc(-c3ccccc3)nn2)n1 | 18.3
Cc1ccc(CNC(=O)c2ccc3c(=O)[nH]c4c(C(=O)NCC5CCCO5)sc(=S)n4c3c2)cc1 (stereo not given) | 24.1
CC(/C=N/NC(=O)CSc1n[nH]c(=O)[nH]c1=O)=C\c1ccccc1 | 12.2
CC1=NN(c2ccc(C(=O)O)cc2)C(=O)/C1=C\c1ccc(OC(=O)c2cccs2)cc1 | 8.7
O=C(Cc1ccccc1)NCc1cccnc1 | 15.6
Cc1ccccc1NC(=O)C1c2cccc[n+]2CC(=O)N1Cc1ccc2c(c1)OCO2 (stereo not given) | 11.4

(more compounds)
Structure | Calb biofilm kill
COC(=O)c1ccc(COc2ccc(C)cc2[N+](=O)[O-])o1 | -0.8
COc1ccc(N(C(=O)c2ccco2)C(C(=O)NC2CCCCC2)c2cccs2)cc1OC (stereo not given) | 7.7
Cc1nnc(N/N=C/c2ccccn2)[nH]c1=O | 12.4
CCOc1ccccc1NC(C)C(=O)Nc1cc(C(F)(F)F)ccc1N1CCOCC1 (stereo not given) | 4.0
Cc1ccc2oc(-c3cccc(NC(=O)Cn4cnc5c(=O)n(C)c(=O)n(C)c54)c3)nc2c1 | 9.8
CCOC(=O)c1nc(NCc2ccccc2C)c2ccccc2n1 | 2.7
Cc1cccnc1NC(=O)c1cc2ccccc2oc1=O | -10.2
COC(=O)c1c(C)[nH]c(C(=O)NCc2ccco2)c1C | 6.0

Continuation.
Structure | Calb biofilm kill
Cc1cccc(N2C(=O)CSC23CCCCC3)c1 | 22.2
Cc1cccc(-c2nc3c(c(=O)c4ccccc4n3C)c(=O)n2-c2ccccc2)c1 | 5.4
COCc1cc(C)nc2oc(C(=O)c3ccccc3)c(N)c12 | 11.7
CCn1ncc(CNC(=O)CCCSc2nc(-c3ccco3)cc(C(F)(F)F)n2)c1C | 13.4
NC(=O)C1CCN(C(=O)c2cc(S(=O)(=O)N3CCOCC3)ccc2Cl)CC1 | 16.4
N#Cc1ccsc1NC(=O)CCc1ccccc1 | 4.7
CCC1=C(OC(=O)N(CC)CC)N2C(=O)OC(=NCC3CC3)[C@]2(C)[C@H]2C1=CC[C@H]1C(=O)N(CC(=O)OC)C(=O)[C@H]12 | 12.8
O=C(CN1C(=O)C2CC=CCC2C1=O)Nc1nc2ccccc2s1 (stereo not given) | 10.6

(listing goes on)
Structure | Calb biofilm kill
O=C(O)CCCCCn1c(SCC(=O)c2ccc(O)c(O)c2)nc2ccsc2c1=O | 18.6
O=C(C1=C[C@@H](C2CC2)C[C@@H](OCc2ccc(CO)cc2)O1)N1CCOCC1 | 11.7
c1csc(-c2noc(CN3CCOCC3)n2)c1 | 16.2
CCc1cccc(NC(=O)C2CCCN2S(=O)(=O)c2ccc3c(c2)n(C)c(=O)c(=O)n3C)c1 (stereo not given) | 26.9
O=C(N1CCCC1)C12CC3CC(CC(C3)C1)C2 | 12.8
CN1CCNC(=O)C1CC(=O)NCCc1ccccc1F (stereo not given) | 6.9
CC(C)N(C(=O)c1ccc(-c2ccccc2F)cc1)C(C)C | 9.7
O=C(NCc1ccc2c(c1)OCO2)c1nnc(Cc2ccc(F)cc2)o1 | 17.5

The list continues.
Structure | Calb biofilm kill
CC1CN(CC(O)COC(c2ccc(Cl)cc2)c2ccc(Cl)cc2)CC(C)O1 (stereo not given) | 3.8
C=CCn1c(=NC(=O)c2cc(Cl)sc2Cl)sc2cc(S(N)(=O)=O)ccc21 | 21.0
CCN(CC)CCCNc1nc(-n2nc(C)cc2C)nc2sc3c(c12)CC(C)(C)OC3 | 15.2
COc1cccc(OC)c1C(=O)O/N=C(\N)c1ccncc1 | 11.3
NC(=O)C1CCN(C(=O)c2ccc3nc(N4CCCCC4)sc3c2)CC1 | 21.4
COc1cc(/C=C/C(=O)Nc2cc(S(=O)(=O)N3CCOCC3)ccc2N2CCCC2)cc(OC)c1OC | 14.4
COc1ccc(NC(=O)CC2C(=O)N(C)C(=S)N2Cc2ccc3c(c2)OCO3)cc1 (stereo not given) | 15.7
O=C(CN1C(=O)CC(c2ccccc2)=Nc2ccccc21)NCc1ccccc1 | 6.7

An excerpt from above in order of number of heavy atoms, ascending.
Structure | Calb biofilm kill
COc1cccc(OC)c1C(=O)O/N=C(\N)c1ccncc1 | 11.3
C=CCn1c(=NC(=O)c2cc(Cl)sc2Cl)sc2cc(S(N)(=O)=O)ccc21 | 21.0
CC1CN(CC(O)COC(c2ccc(Cl)cc2)c2ccc(Cl)cc2)CC(C)O1 (stereo not given) | 3.8
O=C(CN1C(=O)CC(c2ccccc2)=Nc2ccccc21)NCc1ccccc1 | 6.7
COc1ccc(NC(=O)CC2C(=O)N(C)C(=S)N2Cc2ccc3c(c2)OCO3)cc1 (stereo not given) | 15.7
CCN(CC)CCCNc1nc(-n2nc(C)cc2C)nc2sc3c(c12)CC(C)(C)OC3 | 15.2
COc1cc(/C=C/C(=O)Nc2cc(S(=O)(=O)N3CCOCC3)ccc2N2CCCC2)cc(OC)c1OC | 14.4

The list continues:
Structure | Calb biofilm kill
Cc1cccc(NC(=O)c2cnn(-c3ccc(F)cc3)c2C2CCNCC2)c1C | 19.2
CCOC(=O)c1sc(NC(=O)COC(=O)CNC(=O)c2ccco2)c(C(=O)OCC)c1C | 13.0
Cc1cc(C)c2ccc3c(C)c(C)nc3c2[nH]1 | 2.3
Nc1ccccc1NC1=CC(=O)CC(c2ccccc2)C1 (stereo not given) | 10.1
Cn1nc(C(F)(F)F)c(-c2ccc(Br)cc2)c1NC(=O)C1CCC1C(=O)O (stereo not given) | 20.4
CCCCN(CC(=O)NCc1ccc(F)cc1)C(=O)c1ccco1 | -0.3
COc1cc(OC)cc(C(=O)OCC(=O)Nc2ccc(F)cc2F)c1 | 17.8
COc1ccc(CC(=O)NCc2nnc(SCC(=O)Nc3ccc(OC)cc3)n2C)cc1 | 20.8

Next part.
Structure | Calb biofilm kill
O=C(O)CC1CCCC(c2ccccc2)C1=O (stereo not given) | 14.7
O=C(NC(CO)Cc1ccccc1)c1ccccc1 (stereo not given) | 0.4
O=C(CN(C(=O)c1csnn1)c1cccc2ccccc12)NC1CCCC1 | 10.3
O=C1c2nc3cc(-c4ccccc4)[nH]n3c(=O)c2CN1Cc1ccccc1 | 2.2
Cc1ccc(-c2csc(NC(=O)/C=C/c3cccs3)n2)cc1C | 21.5
CCOP(=O)(OCC)c1nc(Cc2ccccc2)oc1NCc1ccccc1 | 16.4
COc1ccc(CCNC(=O)c2ccc(N(C)S(=O)(=O)c3ccccc3)cc2)cc1 | 19.9
CCC(C)/C(C)=N/NC(=O)c1cn(-c2ccccc2)nc1-c1ccccc1 (stereo not given) | 14.8

Later entries
Structure | Calb biofilm kill
Cc1ccc(NC(=O)CN(C)C(=O)CSc2nnc(C(F)(F)F)n2C)cc1 | 8.3
COc1ccc(/C=N/n2c(-c3ccco3)nc3ccccc3c2=O)cc1 | 9.4
NCCCC[C@@H]1NC(=O)c2cc([N+](=O)[O-])cc(I)c2SC[C@@H](C(N)=O)NC(=O)[C@H](Cc2ccc(O)cc2)NC1=O | 13.0
CC(C)CC(=O)NC(=S)N1CCN(c2ccc([N+](=O)[O-])cc2Cl)CC1 | 9.8
COC(=O)c1ccc(N)c(N=CC2=C(O)CC(C)(C)CC2=O)c1 | 7.7
CCOC(=O)CC(=O)CSc1nc2c(c(-c3cccs3)c1C#N)CCC2 | 22.5
Cc1ccccc1N1C(S)=C(C#N)C(=O)NC1c1ccco1 (stereo not given) | 1.7
Clc1cccc(NCc2nnc(SCc3ccc(Cl)cc3Cl)o2)c1 | 10.8

More entries follow.
Structure | Calb biofilm kill
COC(=O)CN1C(=S)N(c2ccc(OC)cc2)C(=O)C1CC(=O)Nc1ccc(F)cc1 (stereo not given) | 5.5
Fc1ccc(CSc2ccc3nnc(-c4ccccn4)n3n2)cc1 | 12.6
CCOC(=O)c1c(C)[nH]c(C)c1C(=O)COC(=O)c1cc(OC)c(OC)cc1OC | 9.4
CCN(CC)CCn1nc2c3c(cccc3c1=O)-c1ccccc1-2 | 12.2
CCOC(=O)N1CCN(C(=O)Nc2cccc3ccccc23)CC1 | 29.9
COc1ccc(CCNC(=O)C2CC(=O)N(c3ccc(C(C)(C)C)cc3)C2)cc1OC (stereo not given) | -30.6
CC(OC(=O)C1CCCCC1)C(=O)Nc1cccc(Cl)c1 (stereo not given) | 5.7
Cc1nn(Cc2ccccc2)c2c1C(c1ccc(Cl)cc1)C(C#N)=C(N)O2 (stereo not given) | 14.2

Brought forward from above: 3 compounds; new compounds follow.
Structure | Calb biofilm kill
COc1ccc(CCNC(=O)C2CC(=O)N(c3ccc(C(C)(C)C)cc3)C2)cc1OC (stereo not given) | -30.6
CC(OC(=O)C1CCCCC1)C(=O)Nc1cccc(Cl)c1 (stereo not given) | 5.7
Cc1nn(Cc2ccccc2)c2c1C(c1ccc(Cl)cc1)C(C#N)=C(N)O2 (stereo not given) | 14.2
O=C(Nc1nc(-c2cc(F)ccc2F)cs1)C1=NN(c2ccccc2)C(=O)CC1 | -2.7
Cc1cc2[nH]c3c(c[n+](C)c4ccccc34)c2cc1C | 4.7
O=C(Nc1cccc(NC(=O)c2ccco2)c1)c1cnccn1 | 13.3
OCCN1CCN(C(=S)c2ccc(-c3ccccc3)cc2)CC1 | 17.8
C#CC(CC)(CC)NC(=S)Nc1cccc(C(C)=O)c1 | 13.6
C=CCON1C(=O)C(=O)N(OCC=C)[C@H]2CCCC[C@H]21 | 21.5
Cc1ccc(OC(=O)c2c(C)nn(-c3ccccc3)c2C)cc1 | 11.4
COc1ccccc1-c1nnc(NC(=O)C2=COCCO2)o1 | 6.5

Continuation:
Structure | Calb biofilm kill
Cc1cccc(C)c1NC(=O)C[N+](C)(C)CC(O)COc1cccc2ccccc12 (stereo not given) | -0.7
COc1cc(-c2cc(=O)c3ccccc3o2)ccc1O | 13.5
Cc1cc(C2=NNC(=NC3CC3)SC2)c(C)n1-c1ccccc1F | 9.0
O=P(c1ccccc1)(c1ccccc1)c1nc(-c2ccc(Cl)cc2)oc1N1CCOCC1 | 12.3
COc1ccc(Nc2nnc(SCC(=O)N3CC(=O)Nc4ccccc43)s2)cc1 | -4.0
CCCCSc1cc(C)nc2ncnn12 | 3.2
CSC1=NCCN1C(=O)c1ccc(C)cc1 | 13.6
COc1cccc(CN2CCN(Cc3cc4ccccc4[nH]3)CC2CCO)c1 (stereo not given) | 25.6

(list continues)
Structure | Calb biofilm kill
O=C1N(Cc2cccc(Cl)c2)C[C@@H]2C[C@@H](c3cccn3-c3ccccn3)N3CCC[C@@]123 | 3.1
CN(Cc1nc2ccc(F)cc2[nH]1)Cc1nc(CC2CC2)no1 | 27.2
O=C1C(Cc2ccc(Br)cc2)SC(=Nc2ccccc2)N1c1ccccc1 (stereo not given) | 7.7
CCc1ccc(NC(=O)CO/N=C(\C)c2cc3ccccc3o2)cc1 | 15.9
Cc1c(C(=O)NNc2c(Cl)cccc2Cl)n(C)oc1=O | 13.4
O=C1NC(=O)C(CC(=O)N(Cc2cccs2)C2(C(=O)NC3CCCC3)CCCCC2)N1 (stereo not given) | 7.5

Bioassay records (PubChem BioAssay)
